Mtb hypoxia inh – reduces hypoxia-regulated biosensor signal in M. tuberculosis. fluorescence inhibition, % (concentration not given with the values). AID 1159583. 300,000 tested, 0.1% active. M. tuberculosis hypoxia-regulated fluorescent reporter, fluorescence;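 active means 35 to 45% if threefold the growth effect, above 45% if 1.5-fold the growth effect; inactive means the rest, general growth blockers included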;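 further: wells of about 50 µL received 100 nL stock; 0% = vehicle wells and 100% = reference inhibitor wells; whole bacteria with a GFP reporter of the hypoxia response; strong numbers were not always called active; many hits fall short of the cut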
Sa ugtP lethal – growth inhibition of S. aureus ugtP deletion strain; 330,000 tested, 0.54% active; S. aureus RN4220 ugtP deletion, OD600 growth, 16 h; some inactives read as strong as hits; AID 1259309; growth inhibition, % (test concentration not listed);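 active means z-score under -3 and OD600 up to 0.15 on both plates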;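 further: plate controls were untreated wells for no effect and antibiotic for full effect; wells of about 80 µL received 100 nL stock; the first replicate is given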
PrP 5UTR inh – suppresses PrP 5' UTR mRNA reporter expression. cell-based PrP 5' UTR mRNA reporter, plate reader. inhibition, % (test concentration not listed). 340,000 tested, 0.35% active;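 active means every replicate at 50% or more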;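 further: 0 = median of the neutral control wells; tested in H4 reporter cells; numbers are from one replicate; inactives centre near -14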
Bead autofluor – counter-screen for toxin protease inhibitors: compound fluorescence | compound autofluorescence counterscreen, microsphere flow cytometry; stronger effect = higher value | fluorescence intensity (test concentration not listed) | 360,000 tested, 3.1% active | AID 624483;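 active means at least 3 SD above the mean of all compounds, about 16000 in these data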;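 further: 100 nL of 1 mM stock went into each well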
BJeLR viability – BJeLR cell viability loss; BJeLR (HRASV12) viability, CellTiter-Glo ATP luminescence, 48 h; reference of the scale not given here; inhibition, % (concentration not given with the values); 300,000 tested, 0.17% active; AID 1554;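 active means replicate mean above 50%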;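 further: 50 nL library stock added to about 25 µL; numbers are from one replicate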
Sa RN4220 lethal – S. aureus RN4220 growth inhibition; OD600, 16 h; inhibition, % (test concentration not listed); 330,000 tested, 0.33% active;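 active means z-score of -3 or lower and OD600 up to 0.18 on both plates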;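 further: plate controls were untreated cells for no effect and reference antibiotic for full effect; stock transfer was 100 nL into about 80 µL; one replicate is shown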
Mtb hypoxia inh growth – further read-out of Mtb hypoxia inh, marked with its call; growth inhibition, %; measured here: M. tuberculosis growth (absorbance);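 0% = vehicle and 100% = reference antibiotic; read after six days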
* hit, by the source's call; x = not tested or not shown.

SMILES	Mtb hypoxia inh	Mtb hypoxia inh growth	Sa ugtP lethal	PrP 5UTR inh	Bead autofluor	BJeLR viability	Sa RN4220 lethal
CC(=O)N1CCN(CC(=O)Nc2ccc([N+](=O)[O-])cc2Br)CC1	10	7	7	-4	5171	2	6.4
Cc1ccc(C)c(-n2c(-c3cccnc3)n[nH]c2=S)c1	2	3	3	-28	3282	2	-0.9
COc1ccc(NC(=O)Cc2ccccc2)cc1	22	-1	12	-48	3097	6	2.1
CC1(c2ccccc2)NC(=O)N(CC(=O)NCc2ccc3c(c2)OCO3)C1=O (stereo unspecified)	-1	5	7	-6	4944	-3	0.1
Cc1cccc(CCNc2nc3ccc(C)cc3n3cnnc23)c1	4	1	2	-19	3856	0	0.2
COc1ccc(OC)c(-c2csc(N(C)C(=O)Cc3ccccc3)n2)c1	6	6	8	-2	4669	x	15
COc1ccc(-c2cc(C(=O)Nc3c(C)n(C)n(-c4ccccc4)c3=O)c3ccccc3n2)c(OC)c1	3	1	14	-3	4482	-4	4.6
CCN(CC)C(=O)c1cnn(-c2ccccc2)c1NC(=O)c1cccc(F)c1	x	x	8	-14	2760	5	1.2
Cn1c(=O)c2c(nc(NN=Cc3cccnc3)n2Cc2ccccc2)n(C)c1=O	-8	-2	-6	x	x	x	1.7
COc1ccc2nc(-c3ccccc3)cc(OC)c2c1	x	x	8	-51	2406	5	-2.1
CC(C)CN(C(=O)CSc1nc2ccccc2[nH]1)C1CCS(=O)(=O)C1 (stereo unspecified)	9	-5	1	-4	4067	x	3.2
NC(=O)C1(N2CCCCC2)CCN(C(=S)Nc2ccc(F)cc2)CC1	4	5	4	-5	1940	-8	5.3
CCOC(=O)c1c(NC(=O)c2ccoc2C)sc2c1CCC2	-2	7	5	-5	5855	-5	1.7
C[C@@H]1CC[C@@]2(O[C@@H](CCO)C[C@@H](O)[C@@H]2O)O1	x	x	x	-3	3670	-5	x
COc1ccc(CCNS(=O)(=O)c2ccc3c(c2)oc(=O)n3C)cc1OC	7	4	-6	-7	4077	2	-7.3
CCC(C)(C)n1nnnc1CN1CCC(O)(c2cccc(C(F)(F)F)c2)CC1	x	x	6	-16	4410	2	12
COC(=O)N/N=C/c1ccc(-c2cc(Cl)cc(Cl)c2)o1	x	x	x	-7	11457	19	x
COc1ccc(-c2cccc(-c3cc(=O)oc4cc(OC)cc(OC)c34)c2)cc1	4	-2	3	15	3727	x	2.6
Cc1ccccc1OCCC(=O)Nc1cc(S(=O)(=O)N2CCOCC2)ccc1OC(C)C	2	-13	-5	-14	4919	1	-1.7
CC1C(=O)N2CCCc3cc(NS(=O)(=O)c4ccc(F)cc4)cc1c32 (stereo unspecified)	-1	-3	4	-20	5554	11	7.2
Cn1cccc1C(=O)NC(=O)COC(=O)CCNS(=O)(=O)c1ccc(Cl)cc1	-8	-10	-5	-2	4074	x	4.2
CCn1c(C)nc2c(C)[n+](CC(=O)c3ccc(Br)cc3)ccc21	-11	-7	-2	-8	2847	-1	-2.4
CC(C)On1c(SCC(=O)N(C)C)nc2ccccc2c1=O	12	5	3	x	x	3	5.3
CCOC(=O)c1c(CN(CC)CC)n(-c2ccccc2)c2ccc(O)cc12	10	4	-6	-8	4210	-5	0.6
CC(C)C(=O)Nc1oc(-c2ccccc2)cc1C#N	10	9	1	-11	3328	-3	5.2
SMILES	Mtb hypoxia inh	Mtb hypoxia inh growth	Sa ugtP lethal	PrP 5UTR inh	Bead autofluor	BJeLR viability	Sa RN4220 lethal
O=C(O)CSCC(=O)N1CCCN(c2nc3ccc(Cl)cc3s2)CC1	-9	-25	0	-17	4356	-3	0.0
Cc1nc2ncnn2c(C)c1CCC(=O)Nc1ccc(S(=O)(=O)N2CCCCCC2)cc1	1	10	5	-20	4308	1	4.1
Cc1ccc2cc(CCNC(=O)C(C)C)c(=O)[nH]c2c1	9	11	10	-20	6142	2	5.6
CCOC(=O)C1CCN(C(=O)c2ccc3c(c2)S(=O)(=O)c2ccccc2C3=O)CC1	13	8	8	-24	3771	-7	4.1
O=C(COc1nsnc1N1CCOCC1)Nc1ccc(Cl)cc1	9	7	-4	-27	2625	-2	5.3
CCC(=O)Nc1ccc(/C(C)=N\NC(=O)c2ccc(OC)cc2)cc1	x	x	x	-29	8547	-10	x
O=C(NNC(=O)c1ccc2ccccc2c1)Nc1ccc(F)cc1	-11	13	-3	-7	6122	-7	0.3
CCOC(=O)C(CN1CCCC1)c1ccccc1 (stereo unspecified)	18	-3	3	-15	4209	3	8.1
Cc1cc(NC(=O)CCN2C(=O)c3ccccc3C2=O)no1	-11	14	-5	-6	12006	-2	-1.4
O=C(ON=C1CCCc2occc21)c1ccc(F)cc1	5	14	3	x	x	x	6.3
COC(=O)/C=C1\S/C(=N\N=CCC(=O)OC)NC1=O	3	-7	-4	x	x	x	0.6
CCOc1ccc(NC(=O)c2ccc(CN3CCc4ccccc4C3)cc2)cc1	-5	2	-2	-20	3796	11	3.4
Cc1cc(-c2nnc(CSc3nnc(NC(=O)c4ccc(C(C)(C)C)cc4)s3)o2)ccc1[N+](=O)[O-]	2	2	5	-7	4490	2	10
NC(=O)c1ccccc1NC(=O)CSc1nc2ccccc2c(=O)[nH]1	1	2	-1	-6	5135	28	3.5
CC(C)CNC(=S)NNC(=O)c1ccco1	2	18	-3	-2	22008*	3	-0.3
CCCc1cc(=O)oc2cc(C)cc(OC(C)C(=O)NCCCN3CCOCC3)c12 (stereo unspecified)	4	-13	12	5	4094	6	4.4
Cc1ccccc1NS(=O)(=O)c1nnc(NC(=O)c2ccc(Br)cc2)s1	4	-6	14	-35	5209	5	44
O=C(O)c1cc(NN=Cc2cccc3ccccc23)ccc1Cl	-6	4	0	x	x	x	0.9
O=S(=O)(Nc1ccc(Cl)cc1)c1ccc2c(c1)CCO2	8	12	0	-9	x	-3	1.9
Cn1cc(-c2ccccc2C(N)=O)c(=O)c2ccccc21	-1	-3	-1	-3	4415	8	-5.3
Cc1c(NS(=O)(=O)c2cccs2)c(=O)n(-c2ccccc2)n1C	3	4	-7	1	x	1	-6.6
CC1CN(S(=O)(=O)c2ccc(Cl)c(C(F)(F)F)c2)CC(C)O1 (stereo unspecified)	-3	-10	-1	-7	16300*	-7	2.7
CC(OC(=O)c1ccc(C(C)(C)C)cc1)C(=O)NC1CCCCC1C (stereo unspecified)	12	5	10	17	4325	-1	0.5
CC1C(=O)Nc2ccc(S(=O)(=O)N3CCN(c4ccccc4F)CC3)cc2NC1=O (stereo unspecified)	-14	8	-10	-32	5358	21	-1.9
Cc1cccc(C(=O)NCC(=O)OCC(=O)c2ccc(Br)s2)c1	-12	-2	3	-17	5062	x	1.6

Sorted by count of non-hydrogen atoms (lowest first): 14 of the compounds above
SMILES	Mtb hypoxia inh	Mtb hypoxia inh growth	Sa ugtP lethal	PrP 5UTR inh	Bead autofluor	BJeLR viability	Sa RN4220 lethal
CC(C)CNC(=S)NNC(=O)c1ccco1	2	18	-3	-2	22008*	3	-0.3
CCOC(=O)C(CN1CCCC1)c1ccccc1 (stereo unspecified)	18	-3	3	-15	4209	3	8.1
COC(=O)/C=C1\S/C(=N\N=CCC(=O)OC)NC1=O	3	-7	-4	x	x	x	0.6
O=S(=O)(Nc1ccc(Cl)cc1)c1ccc2c(c1)CCO2	8	12	0	-9	x	-3	1.9
Cn1cc(-c2ccccc2C(N)=O)c(=O)c2ccccc21	-1	-3	-1	-3	4415	8	-5.3
CC1CN(S(=O)(=O)c2ccc(Cl)c(C(F)(F)F)c2)CC(C)O1 (stereo unspecified)	-3	-10	-1	-7	16300*	-7	2.7
Cc1cccc(C(=O)NCC(=O)OCC(=O)c2ccc(Br)s2)c1	-12	-2	3	-17	5062	x	1.6
O=C(NNC(=O)c1ccc2ccccc2c1)Nc1ccc(F)cc1	-11	13	-3	-7	6122	-7	0.3
O=C(O)CSCC(=O)N1CCCN(c2nc3ccc(Cl)cc3s2)CC1	-9	-25	0	-17	4356	-3	0.0
Cc1ccccc1NS(=O)(=O)c1nnc(NC(=O)c2ccc(Br)cc2)s1	4	-6	14	-35	5209	5	44
CCOc1ccc(NC(=O)c2ccc(CN3CCc4ccccc4C3)cc2)cc1	-5	2	-2	-20	3796	11	3.4
CCOC(=O)C1CCN(C(=O)c2ccc3c(c2)S(=O)(=O)c2ccccc2C3=O)CC1	13	8	8	-24	3771	-7	4.1
Cc1nc2ncnn2c(C)c1CCC(=O)Nc1ccc(S(=O)(=O)N2CCCCCC2)cc1	1	10	5	-20	4308	1	4.1
Cc1cc(-c2nnc(CSc3nnc(NC(=O)c4ccc(C(C)(C)C)cc4)s3)o2)ccc1[N+](=O)[O-]	2	2	5	-7	4490	2	10

Later entries.
SMILES	Mtb hypoxia inh	Mtb hypoxia inh growth	Sa ugtP lethal	PrP 5UTR inh	Bead autofluor	BJeLR viability	Sa RN4220 lethal
Cc1cc(C)cc(Nc2c3c(nc4ncnn24)CCC3)c1	9	1	-16	1	2563	4	-0.6
COc1ccc(CNC(=O)c2ccc(CS(=O)(=O)c3ccc(C)cc3)o2)cc1	-1	-1	7	0	5601	-7	1.9
OCCN1CCN(c2nc3ccccc3nc2-c2ccccc2)CC1	12	1	1	-4	5964	5	2.3
Cn1c2c(sc1=O)CCC2	-17	12	-2	-16	4181	x	0.9
CC(NC(=O)c1cccc(S(=O)(=O)N2CCN(Cc3ccccc3)CC2)c1)c1ccccc1Cl (stereo unspecified)	5	11	2	-12	3941	x	-1.9
CCOC(=O)N1CCC(NS(=O)(=O)c2ccc3c(c2)OCC(=O)N3)CC1	3	-5	2	-2	3027	-10	2.7
CC(C)(C)C(=O)Nc1nc(C2CCCN2S(=O)(=O)c2ccc(Cl)cc2)cs1 (stereo unspecified)	3	1	-3	-16	2844	-1	9.9
COc1ccc(CNC(=O)c2ccc(NS(=O)(=O)c3c(C)noc3C)cc2)cc1	-4	8	20	-7	4367	11	-8.3
O=C1C(Cl)=C(N2CCN(Cc3ccccc3)CC2)C(=O)N1c1ccccc1	-8	6	-2	1	3952	4	13
CC(=O)Nc1nc2c(C)cc(NC(=O)C3CCCCC3)cc2s1	8	12	-1	-42	3970	2	6.8
Cc1csc(NC(=O)c2c(-c3c(F)cccc3Cl)noc2C)n1	-8	-18	4	-23	3623	x	7.2
Cc1ccc(C=Nn2c(-c3ccccc3)n[nH]c2=S)cc1	5	3	5	x	x	x	9.2
CC(=O)c1ccc(NC(=O)COC(=O)c2ccccc2Sc2ccccc2C#N)cc1	0	4	-3	-34	2761	2	9.0
CCOC(=O)COn1c(=O)c(-c2ccccc2)[n+]([O-])c2ccccc21	3	-5	-1	-26	3611	-10	0.5
COc1cc2c(cc1OC)CN(C(C)C(=O)Nc1cccc(S(=O)(=O)N3CCOCC3)c1)CC2 (stereo unspecified)	-12	2	6	-3	6011	x	2.5
Cc1cccc2c(C(=O)N3CCN(c4ccccc4)CC3)cc(-c3ccncc3)nc12	-5	3	2	-11	6004	7	-4.1
CC1CCN(C(=O)COC(=O)c2n[nH]c(=O)c3ccccc23)CC1	10	-1	7	-2	3064	x	4.7
Cc1cc(C)c(OCCCNCc2ccccc2)c(Br)c1	-1	6	-31	-14	4226	8	4.7
CC(=NCc1cccnc1)c1c(O)n(-c2ccc(Cl)cc2)c(=O)[nH]c1=O	-5	-7	11	-36	5481	-3	3.6

Compound activity (PubChem)
